ugtP null kill: growth inhibition of ugtP-null S. aureus, primary screen, RN4220 ugtP deletion, OD600; AID 1259309, 2017; growth inhibition, % (test concentration not listed); 330,000 compounds, 0.54% hits; 16 h; some inactives read as strong as hits;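 active = z-score under -3 and OD600 up to 0.15 on both plates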;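 note: plate controls were untreated wells for no effect and antibiotic for full effect; wells of about 80 µL received 100 nL stock; the first replicate is given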
RN4220 kill: growth inhibition of S. aureus RN4220, primary screen, OD600; 16 h; inhibition, % (no concentration beside the values); 330,000 compounds, 0.33% hits;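 active = z-score of -3 or lower and OD600 up to 0.18 on both plates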;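 note: plate controls were untreated cells for no effect and reference antibiotic for full effect; stock transfer was 100 nL into about 80 µL; one replicate is shown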
PrP UTR inh: inhibition of PrP 5' UTR reporter expression. 340,000 compounds, 0.35% hits. cell-based PrP 5' UTR mRNA reporter, plate reader. inhibition, % (concentration not given with the values);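 active = every replicate at 50% or more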;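 note: 0 = median of the neutral control wells; tested in H4 reporter cells; numbers are from one replicate; inactives centre near -14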
BJeLR viability: MLPCN primary cell-based screen for lethality selective to Ras in HRASV12 cells; BJeLR (HRASV12) viability, CellTiter-Glo ATP luminescence, 48 h; reference of the scale not given here; inhibition, % (test concentration not listed); 300,000 compounds, 0.17% hits;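 active = replicate mean above 50%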;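 note: 50 nL library stock added to about 25 µL; numbers are from one replicate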
Bead autofluor: compound fluorescence in toxin protease inhibitor counterscreen. AID 624483. fluorescence intensity (concentration not given with the values). compound autofluorescence counterscreen, microsphere flow cytometry; hits give high values. 360,000 compounds, 3.1% hits;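 active = at least 3 SD above the mean of all compounds, about 16000 in these data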;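 note: 100 nL of 1 mM stock went into each well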
Mtb hypoxia rep: PubChem AID 1159583; fluorescence inhibition, % (concentration not given with the values); M. tuberculosis hypoxia-regulated fluorescent reporter, fluorescence; 300,000 compounds, 0.1% hits;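 active = 35 to 45% if threefold the growth effect, above 45% if 1.5-fold the growth effect; inactive = the rest, general growth blockers included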;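 note: wells of about 50 µL received 100 nL stock; 0% = vehicle wells and 100% = reference inhibitor wells; whole bacteria with a GFP reporter of the hypoxia response; strong numbers were not always called active; many hits fall short of the cut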
Mtb hypoxia rep growth: recorded beside Mtb hypoxia rep, whose call it bears; growth inhibition, %; measured here: M. tuberculosis growth (absorbance);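 0% = vehicle and 100% = reference antibiotic; read after six days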
Starred values were filed as active, the others as inactive.

For CC(C)(C)NC(=O)C[C@H]1C[C@H](C(=O)N2CCOCC2)[C@@]2(CCC3CCCC3)c3[nH]c4cc(-c5ccco5)ccc4c3CCN2C1=O the results were ugtP null kill -9, RN4220 kill 0.5, PrP UTR inh -5, Bead autofluor 3879, Mtb hypoxia rep 1 and Mtb hypoxia rep growth 9.
`CC1(C)CC2CC(C)(CN2C(=O)COC(=O)CNC(=O)c2ccc(Cl)c(Cl)c2)C1` (stereo not given) gave ugtP null kill -5, RN4220 kill 9.5, PrP UTR inh -9, BJeLR viability -20, Bead autofluor 2071, Mtb hypoxia rep 5 and Mtb hypoxia rep growth 2.
For Cc1ccc(C2(C(F)(F)F)N=C3Sc4cc(C)ccc4N3C(=O)N2)cc1 (stereo not given) the results were ugtP null kill 10, RN4220 kill 1.4, BJeLR viability -10, Mtb hypoxia rep -68 and Mtb hypoxia rep growth 10.
Screening CC(=O)c1c(C)[nH]c(C(=O)COC(=O)CCSc2ccccc2)c1C returned ugtP null kill 0, RN4220 kill 2.2, PrP UTR inh -11, BJeLR viability -9, Bead autofluor 2288, Mtb hypoxia rep -3 and Mtb hypoxia rep growth 3.
For CON=Cc1ccc(OC)c(Oc2nc(OC)cc(OC)n2)c1 the results were ugtP null kill 11, RN4220 kill 2.4, Mtb hypoxia rep 12 and Mtb hypoxia rep growth 11.
COc1cccc(C(=O)Oc2ccc(N3C(=O)CCC3=O)c(C)c2)c1 was read as ugtP null kill 6, RN4220 kill 7.5, PrP UTR inh -4, BJeLR viability 6, Bead autofluor 3342, Mtb hypoxia rep 7 and Mtb hypoxia rep growth 0.
For COc1cc2c(cc1NC(=O)CN1C(=O)NC3(CCc4ccccc43)C1=O)oc1ccccc12 (stereo not given) the results were ugtP null kill 9, RN4220 kill 46, PrP UTR inh -12, BJeLR viability -19, Bead autofluor 8348, Mtb hypoxia rep 1 and Mtb hypoxia rep growth 6.
Screening Cc1nc2cc(NC(=O)c3ccc(Cl)cc3)ccc2n1C returned ugtP null kill 15, RN4220 kill 5.7, PrP UTR inh -28, BJeLR viability -1, Bead autofluor 3725, Mtb hypoxia rep 3 and Mtb hypoxia rep growth 7.
`Cc1ccc2cc(C=NNC(=O)c3ccccc3[N+](=O)[O-])c(Cl)nc2c1` gave ugtP null kill -1, RN4220 kill -1.3, Mtb hypoxia rep -4 and Mtb hypoxia rep growth 1.
`Cc1cccc(C(=O)N=C2SC3CS(=O)(=O)CC3N2c2ccccc2)c1` (stereo not given) gave ugtP null kill 3, RN4220 kill -1.4, PrP UTR inh -9, Bead autofluor 6334, Mtb hypoxia rep 4 and Mtb hypoxia rep growth 1.
Screening Cc1cc(-c2nnc(SCC(=O)Nc3ccc(Br)cc3F)n2N)n[nH]1 returned ugtP null kill 10, RN4220 kill 4.2, PrP UTR inh -4, BJeLR viability -5, Bead autofluor 5080, Mtb hypoxia rep 2 and Mtb hypoxia rep growth 0.
CCOC(=O)c1cc2sccc2n1CC(=O)C(C)(C)C was read as ugtP null kill 11, RN4220 kill 5.4, PrP UTR inh -9, BJeLR viability 8, Bead autofluor 4319, Mtb hypoxia rep 11 and Mtb hypoxia rep growth 2.
For COc1ccc(-c2nc3ccc(C(=O)NCC(OC)OC)cc3nc2-c2ccc(OC)c(OC)c2)cc1OC the results were ugtP null kill 6, RN4220 kill 4.2, PrP UTR inh -22, BJeLR viability -10, Bead autofluor 3509, Mtb hypoxia rep -6 and Mtb hypoxia rep growth 8.
For C/C=C/C(=O)OCC(=O)Nc1cccc(Br)c1 the results were ugtP null kill 9, RN4220 kill 13, PrP UTR inh -25, BJeLR viability 30, Bead autofluor 4359, Mtb hypoxia rep 15 and Mtb hypoxia rep growth 2.
Cc1cc(/C=C2/SC(=O)N(CC(=O)N3CCOCC3)C2=O)c(C)n1-c1ccccc1F was read as ugtP null kill 6, RN4220 kill 0.2, PrP UTR inh -17, BJeLR viability -2, Bead autofluor 1975, Mtb hypoxia rep 0 and Mtb hypoxia rep growth -2.
For COc1ccc(-c2nc3ncnn3cc2C)cc1F the results were ugtP null kill 0, RN4220 kill -2.2, PrP UTR inh -19, BJeLR viability 1, Bead autofluor 4052, Mtb hypoxia rep -6 and Mtb hypoxia rep growth -4.
`CCc1ccc(OCC2c3cc(OC)c(OC)cc3CCN2C(=S)NC)cc1` (stereo not given) gave ugtP null kill 14, RN4220 kill -1.3, PrP UTR inh -26, BJeLR viability -18, Bead autofluor 4918, Mtb hypoxia rep 3 and Mtb hypoxia rep growth 2.
`CC1=NNC(=O)C1CCC(=O)NN=Cc1cccc(Cl)c1` (stereo not given) gave ugtP null kill -3, RN4220 kill -2.8, Mtb hypoxia rep -11 and Mtb hypoxia rep growth -12.
`O=C(c1ccccc1)C(Cc1ccccc1)N1CCOCC1` (stereo not given) gave ugtP null kill 9, RN4220 kill 4.6, PrP UTR inh -3, Bead autofluor 4373, Mtb hypoxia rep 23 and Mtb hypoxia rep growth 12.
For CCOc1ccc(CC(=O)N2CCN(c3ccc(N4CCOCC4)nn3)CC2)cc1OCC the results were ugtP null kill -6, RN4220 kill 4.5, PrP UTR inh -9, BJeLR viability -1, Bead autofluor 6027, Mtb hypoxia rep -1 and Mtb hypoxia rep growth -4.
CSCCC(NC(=O)c1ccc(Cl)cc1)C(=O)OCC(=O)N1CCCC1=O (stereo not given) was read as ugtP null kill 5, RN4220 kill 1.4, PrP UTR inh -16, BJeLR viability 0, Bead autofluor 5211, Mtb hypoxia rep 3 and Mtb hypoxia rep growth 1.
Screening Cc1c(C=NO)c2ccccn2c1C=O returned ugtP null kill 6, RN4220 kill 5.8, Mtb hypoxia rep -2 and Mtb hypoxia rep growth 14.
`COc1cccc(N2CCN(Cc3nc(N)nc(Nc4ccccc4OC)n3)CC2)c1` gave ugtP null kill -3, RN4220 kill 3.8, PrP UTR inh -17, BJeLR viability 1, Bead autofluor 3621, Mtb hypoxia rep -1 and Mtb hypoxia rep growth 4.
CC(C)C(NC(=O)c1c(F)cccc1F)C(=O)NCCc1ccc(S(N)(=O)=O)cc1 (stereo not given) was read as ugtP null kill 12, RN4220 kill 1.9, PrP UTR inh -10, BJeLR viability -3, Bead autofluor 6025, Mtb hypoxia rep 11 and Mtb hypoxia rep growth 0.
Cc1ccc(-c2nnc(SCC(=O)NNC(=O)COc3cccc(C)c3)n2C)cc1 was read as ugtP null kill 2, RN4220 kill 0.0, PrP UTR inh -16, BJeLR viability 6, Bead autofluor 22497*, Mtb hypoxia rep 1 and Mtb hypoxia rep growth 5.
Screening CC1CCCN(c2ncnc3c2cnn3-c2ccc(Cl)cc2)C1 (stereo not given) returned ugtP null kill -9, RN4220 kill -3.8, PrP UTR inh 88*, BJeLR viability 1, Bead autofluor 5203, Mtb hypoxia rep 0 and Mtb hypoxia rep growth 10.
Screening O=C(C1CCCCC1)N1CCCC(c2nc3c(nnn3Cc3ccccc3)c(=O)[nH]2)C1 (stereo not given) returned ugtP null kill -5, RN4220 kill 0.3, PrP UTR inh 15, BJeLR viability -13, Bead autofluor 15504, Mtb hypoxia rep -4 and Mtb hypoxia rep growth -6.
`COCCCNC(=O)Cn1nc(-c2ccc(C)cc2)ccc1=O` gave ugtP null kill -1, RN4220 kill 1.2, PrP UTR inh -8, BJeLR viability 0, Bead autofluor 9079, Mtb hypoxia rep 4 and Mtb hypoxia rep growth -2.
CC1NC(=O)c2cc([N+](=O)[O-])cc(F)c2NCCCC(C(N)=O)NC(=O)C(CC(N)=O)NC1=O (stereo not given) was read as ugtP null kill 3, RN4220 kill 5.1, Mtb hypoxia rep 8 and Mtb hypoxia rep growth 8.
`CN(C)c1ccc(-c2nnc(-c3ccccc3F)o2)cc1` gave ugtP null kill 7, RN4220 kill 7.0, PrP UTR inh -25, BJeLR viability -12, Bead autofluor 4280, Mtb hypoxia rep 1 and Mtb hypoxia rep growth 0.
`O=C(C(=O)N1CCc2ccccc2C1)c1c[nH]c2ccccc12` gave ugtP null kill 0, RN4220 kill 2.3, PrP UTR inh -13, BJeLR viability -1, Bead autofluor 2089, Mtb hypoxia rep 11 and Mtb hypoxia rep growth 5.
For CC(=O)Nc1nonc1-c1nc2ccccc2n1Cc1nnc(C)o1 the results were ugtP null kill 1, RN4220 kill 4.1, PrP UTR inh -1, BJeLR viability -1, Bead autofluor 22950*, Mtb hypoxia rep -3 and Mtb hypoxia rep growth -3.
Screening CCOc1cnc(-c2c(-c3ccccc3Cl)noc2C)o1 returned ugtP null kill 11, RN4220 kill 6.9, PrP UTR inh -6, BJeLR viability 3, Bead autofluor 2485, Mtb hypoxia rep 0 and Mtb hypoxia rep growth 7.
For Cc1ccccc1NS(=O)(=O)c1ccc(C(=O)N2CCC2)cc1 the results were ugtP null kill 7, RN4220 kill 6.8, PrP UTR inh -15, BJeLR viability 7, Mtb hypoxia rep 3 and Mtb hypoxia rep growth 3.
Screening CCC(=O)Nc1cc2c(cc1C(=O)CC)OCCO2 returned ugtP null kill -4, RN4220 kill 13, PrP UTR inh -26, BJeLR viability 1, Bead autofluor 2904, Mtb hypoxia rep -8 and Mtb hypoxia rep growth 13.
`CCN(CC)CCCNC(=O)c1nn(-c2ccccc2OC)c(=O)c2ccccc12` gave ugtP null kill 7, RN4220 kill -1.9, PrP UTR inh -24, BJeLR viability 2 and Bead autofluor 2784.
`O=C(C1=CC(c2csc3ccccc23)CC(OCCCCO)O1)N1CCN(Cc2ccccc2)CC1` (stereo not given) gave ugtP null kill 6, RN4220 kill 2.6, Mtb hypoxia rep 9 and Mtb hypoxia rep growth 6.
COc1ccccc1C(=O)N1CCN(Cc2cn[nH]c2-c2ccc(F)cc2F)CC1 was read as ugtP null kill 5, RN4220 kill 2.4, PrP UTR inh -4, BJeLR viability 4, Bead autofluor 2623, Mtb hypoxia rep 2 and Mtb hypoxia rep growth -3.
For Cc1cccc(Nc2nc3ccccc3s2)c1C the results were ugtP null kill -18, RN4220 kill -6.0, PrP UTR inh -112, BJeLR viability -16, Bead autofluor 2623, Mtb hypoxia rep -11 and Mtb hypoxia rep growth -5.
For CC1(C)CC2CC(C)(CN2C(=O)COC(=O)c2cc(Cl)cc(Cl)c2N)C1 (stereo not given) the results were ugtP null kill -13, RN4220 kill 6.8, BJeLR viability -7, Bead autofluor 11170, Mtb hypoxia rep 7 and Mtb hypoxia rep growth 5.

Some of these compounds in order of length of the SMILES, descending:
For CC1(C)CC2CC(C)(CN2C(=O)COC(=O)c2cc(Cl)cc(Cl)c2N)C1 (stereo not given) the results were ugtP null kill -13, RN4220 kill 6.8, BJeLR viability -7, Bead autofluor 11170, Mtb hypoxia rep 7 and Mtb hypoxia rep growth 5.
For CC(=O)Nc1nonc1-c1nc2ccccc2n1Cc1nnc(C)o1 the results were ugtP null kill 1, RN4220 kill 4.1, PrP UTR inh -1, BJeLR viability -1, Bead autofluor 22950*, Mtb hypoxia rep -3 and Mtb hypoxia rep growth -3.
Screening CCC(=O)Nc1cc2c(cc1C(=O)CC)OCCO2 returned ugtP null kill -4, RN4220 kill 13, PrP UTR inh -26, BJeLR viability 1, Bead autofluor 2904, Mtb hypoxia rep -8 and Mtb hypoxia rep growth 13.
For Cc1cccc(Nc2nc3ccccc3s2)c1C the results were ugtP null kill -18, RN4220 kill -6.0, PrP UTR inh -112, BJeLR viability -16, Bead autofluor 2623, Mtb hypoxia rep -11 and Mtb hypoxia rep growth -5.

Later entries
COc1cccc(NC(=O)C(C)NS(=O)(=O)c2ccc(Br)cc2)c1 (stereo not given) was read as ugtP null kill 2, RN4220 kill 2.3, PrP UTR inh -12, BJeLR viability 2, Bead autofluor 5184, Mtb hypoxia rep 0 and Mtb hypoxia rep growth 6.
Screening CCN(CC)S(=O)(=O)c1ccc(C(=O)NNC(=O)C2CCN(S(=O)(=O)c3ccc(Cl)cc3)CC2)cc1 returned ugtP null kill -3, RN4220 kill 3.7, PrP UTR inh -10, BJeLR viability 10, Bead autofluor 7317, Mtb hypoxia rep 3 and Mtb hypoxia rep growth 7.
For Nc1ccccc1-c1ccn[nH]1 the results were ugtP null kill -1, RN4220 kill 6.1, PrP UTR inh -42, Bead autofluor 3454, Mtb hypoxia rep 12 and Mtb hypoxia rep growth 5.
Screening CN1CCN(c2nc3c(c(=O)n(C)c(=O)n3C)n2Cc2ccccc2Cl)CC1 returned ugtP null kill 10, RN4220 kill 3.4, PrP UTR inh -21, BJeLR viability 0, Bead autofluor 3942, Mtb hypoxia rep -2 and Mtb hypoxia rep growth -2.

Not a hit list (roughly 3.9% active in at least one column).
